# Assay outcomes deposited in PubChem by National Center for Advancing Translational Sciences (NCATS).
# MARV entry inh = qHTS for inhibitors of binding or entry into cells for Marburg Virus. Potency, µM (doses to about 37.8 µM), for the others: at the highest dose activity change, negative = inhibition, actives largely listed as inhibitors. hit rate 1.8% among 300,000. AID 540276, 2011. Marburg virus pseudotyped entry inhibition, cell reporter; control for the full effect not named in the record; about a third of the inactives were read at about 46 µM; active = well fitted inhibition curve with a large enough effect; inconclusive = small, poorly fitted or top-dose-only effect, or effect the other way; inactive = flat fitted curve, though single readings scatter; tested in HEK293 cells; about a fifth of its hits are not listed in these tables; further: on the % scale 0 is the no-effect control and ±100 the full control effect; luciferase read-out
# NS1 function inh = qHTS Assay for Inhibitors of Influenza NS1 Protein Function | S. cerevisiae slowed by influenza A NS1, growth recovery by OD600 | Potency, µM (titrated, usually from 46.1 µM), without a hit: at the highest dose activity, positive = more growth | hit rate 0.4% among 270,000; active means well fitted rising curve with a large enough effect; inconclusive means small, poorly fitted or top-dose-only effect; inactive means no such curve, though single readings can be large or run the other way; further: nearly all actives have a fitted effect of over 50% in size
#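 A cell-based growth assay was used: compounds that relieve NS1-induced slow growth of budding yeast raise OD600. Assay medium was yeast nitrogen base with ammonium sulphate and -URA supplement, pH 6.0, with 2% galactose.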
# SARS PLP yeast = qHTS of Yeast-based Assay for SARS-CoV PLP | S. cerevisiae expressing SARS-CoV PLpro, growth rescue; control for the full effect not named in the record | Potency, µM (series often up to 32.9 µM), without a hit: at the top dose activity, positive = growth rescue | hit rate 0.19% among 330,000 | AID 485353, 2010; active means well fitted rising curve with a large enough effect; inconclusive means small, poorly fitted or top-dose-only effect; inactive means no such curve, though single readings can be large or run the other way; further: 0% is about no effect; nearly all actives have a fitted effect of over 55% in size; growth read by luminescence after 48 h
# RE007 growth inh = qHTS Assay for Inhibitors of the HIV-1 protein Vpr; S. pombe RE007 Vpr strain, BacTiter-Glo ATP luminescence, 24 h; control for the full effect not named in the record; Potency, µM (series often up to 92.2 µM), for the others: at the top dose activity change, negative = less growth; hit rate 0.21% among 360,000; active = well fitted falling curve with a large enough effect; inconclusive = small, poorly fitted or top-dose-only effect; inactive = no such curve, though single readings can be large or run the other way;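 further: on the % scale 0 is the no-effect control and ±100 the full control effect; nearly all actives have a fitted effect of over 50% in size; the assay follows cell death caused by Vpr and the record does not say whether a fall means rescue or toxicity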
#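 Fission yeast strain RE007, carrying one chromosomally integrated HIV-1 vpr copy, was seeded at OD 0.01 in PMG+AL medium with 23 nL pinned compound. After 24 h at 30 °C and 99% humidity, viability was read by BacTiter-Glo luminescence.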
# Cruzain inh Det = qHTS Assay for Promiscuous and Specific Inhibitors of Cruzain (with detergent) | Cruzipain (Trypanosoma cruzi), P25779 | purified cruzain, Z-FR-AMC fluorescence, 0.01% Triton | Potency, µM, for the others: max response, negative = inhibition, most hits filed as inhibitors | hit rate 0.43% among 200,000 | AID 1478, 2009;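 further: plate controls were neutral wells for no effect and buffer without enzyme for full effect; nearly all actives have a fitted effect of over 40% in size; top concentration of the series not given in the record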
# Target sequence (P25779 123-467 limits assumed): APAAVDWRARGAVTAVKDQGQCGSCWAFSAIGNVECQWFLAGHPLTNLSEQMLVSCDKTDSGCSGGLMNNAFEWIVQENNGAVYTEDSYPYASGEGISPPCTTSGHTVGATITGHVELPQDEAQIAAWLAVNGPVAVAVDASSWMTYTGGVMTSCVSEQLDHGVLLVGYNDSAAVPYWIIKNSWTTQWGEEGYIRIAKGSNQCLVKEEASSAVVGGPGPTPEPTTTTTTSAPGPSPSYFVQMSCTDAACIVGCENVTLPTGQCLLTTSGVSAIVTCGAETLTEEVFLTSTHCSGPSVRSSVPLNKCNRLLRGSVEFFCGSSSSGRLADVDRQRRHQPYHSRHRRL
#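 In this qHTS format, compounds are incubated with 1.5 nM cruzain for 15 min at room temperature before 2 uM Z-FR-AMC is added. Release of AMC is followed at 360/450 nm, and progress is taken as the 60 s fluorescence difference.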
# 2A StopGo = High Throughput Screening for Foot and Mouth Disease Virus Antivirals; hit rate 1.2% among 410,000; Potency, µM (highest dose often 57.9 µM), without a hit: at the top dose signal change, negative = less light; human cells with a luciferase reporter of 2A StopGo recoding; control for the full effect not named in the record; active = well fitted falling curve with a large enough effect; inconclusive = small, poorly fitted or top-dose-only effect; inactive = no such curve, though single readings can be large or run the other way; tested in HEK293T cells; further: on the % scale 0 is the no-effect control and ±100 the full control effect; nearly all actives have a fitted effect of over 45% in size; luciferase light after 4 h
# Cruzain inh noDet = qHTS Assay for Promiscuous and Specific Inhibitors of Cruzain (without detergent); hit rate 2.3% among 200,000; purified cruzain, Z-FR-AMC fluorescence, no detergent; Potency, µM, without a hit: max response, negative = inhibition, usual class: inhibitors;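 further: plate controls were enzyme without inhibitor for no effect and buffer without enzyme for full effect; nearly all actives have a fitted effect of over 40% in size; top concentration of the series not given in the record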
#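 Detergent-free condition (0.00005% Triton X-100) in acetate buffer pH 5.5 with DTT. 1.5 nM enzyme and compound were pre-mixed 15 min, then 2 uM Z-FR-AMC substrate added; reaction progress from fluorescence change between first and third reads (60 s).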
# LASV entry inh = qHTS for Inhibitors of binding or entry into cells for Lassa Virus; Lassa virus pseudotype entry inhibition, cell reporter; control for the full effect not named in the record; Potency, µM (series often up to 37.9 µM), inactives show at the top dose activity change, negative = inhibition, usual class: inhibitors; hit rate 1.2% among 300,000; AID 540256, 2011; active means well fitted inhibition curve with a large enough effect; inconclusive means small, poorly fitted or top-dose-only effect, or effect the other way; inactive means flat fitted curve, though single readings scatter; tested in HEK293 cells; further: on the % scale 0 is the no-effect control and ±100 the full control effect; nearly all actives have a fitted effect of over 50% in size; luciferase read-out
# * hit, by the source's call; ? = inconclusive; / = no result given; & = joins results of further samples; [ ] = another dose, or the depositor's remark. Unless noted, the call rests on the fitted dose curve; in most records, active means well fitted curve in the direction sought with a large enough effect; inconclusive means small, poorly fitted or top-dose-only effect, or another doubt; inactive means no such curve, though single readings can be large; an effect the other way counts as inactive or inconclusive. Potency means the concentration at half of the fitted maximal effect.
SMILES,MARV entry inh,NS1 function inh,SARS PLP yeast,RE007 growth inh,Cruzain inh Det,2A StopGo,Cruzain inh noDet,LASV entry inh
COc1cc(C(=O)Nc2ccc(-c3cc(C(F)(F)F)nn3-c3ccccc3)cc2)cc(OC)c1OC,?,/,/,/,-5.9%,-24%,?,?
COc1cc(/C=N/Nc2ncnc3sc4c(c23)CCC4)ccc1O,-2%,9%,-10%,21%,-2.5%,-11%,20%,3%
CCc1ccc2ncc3c(-c4ccc(F)cc4)nn(CC(=O)NC4CCCCC4)c3c2c1,/,/,/,/,4.0%,-11%,?,2%[46.1 µM]
COC(=O)C1=C(C)NC(=O)C1(NC(=O)c1ccc(Cl)cc1)C(F)(F)F (stereo not drawn),/,/,/,/,1.4%,-3%,-4%,?
COc1ccccc1CNC(=O)Cc1csc2nc(-c3ccc(Cl)cc3)cn12,/,/,/,/,-9.2%,-6%,-23%,?
O=C(CN1CCN(C(=O)C2CCCO2)CC1)Nc1ccc(Cl)c(Cl)c1 (stereo not drawn),/,-3%,3%,6%,/,-19%,/,/
Cc1ccc(S(=O)(=O)c2c(C(=O)c3ccccc3)cnc3cc4c(cc23)OCCO4)cc1,/,16µM*,-3%,16%,-5.0%,13%,?,?
CC(C)(C)C1CCC2(CC1)C(Nc1cccc(C(F)(F)F)c1)=NC(=S)N2CC#N (stereo not drawn),-11%,21%,6%,7%,-1.9%,-4%,-3%,-14%
CCn1ccnc1CNC(=O)CC1C(=O)NCCN1CC(c1ccccc1)c1ccccc1 (stereo not drawn),1%[46.1 µM],3%,1%,0%,/,-3%,/,-25%[46.1 µM]
Cc1ccc(N2CC(NC(=O)c3ccco3)CC2=O)cc1 (stereo not drawn),/,/,/,/,2.0%,-17%,0%,11%[46.1 µM]
COc1ccc(CN2CCC(C(=O)N3CCN(c4ccccc4F)CC3)CC2)cc1OC,-12%,-19%,27%,-13%,1.3%,-29%,-2%,2%
Cc1ncsc1CCOC(=O)c1ccc([N+](=O)[O-])cc1,-3%,-11%,2%,121%,1.6%,-8%,-4%,14%
O=C(CNc1cccc2ccccc12)N/N=C/c1ccc([N+](=O)[O-])cc1,-14%[46.1 µM],15%,-13%,-1%,-3.0%,-9%,4%,-32%[46.1 µM]
COc1cccc(NC(=S)NCc2ccncc2)c1,-4%,3%,-12%,-23%,0.6%,-1%,3%,-11%
COc1ccc(N(C(=O)c2cc3ccccc3oc2=O)C2C=CS(=O)(=O)C2)c(OC)c1 (stereo not drawn),?,/,-1%,-4%,/,-7%,/,-14%
Cc1ccc(/C(N)=N/OC(=O)CCC2CCCCC2)cc1,?,-33%,1%,0%,-2.2%,44%[activator],-2%,-3%
COc1ccc(-c2nc3sc(CCNC(=O)c4cc(OC)c(OC)c(OC)c4)c(C)n3n2)cc1,/,/,/,/,-1.6%,6%,?,-23%[46.1 µM]
O=C(COc1ccc(Cl)cc1)NCCc1ccccn1,?,/,1%,-10%,/,17%,/,?
COc1ccccc1Nc1nc(C)nc(N)c1S(=O)(=O)c1ccccc1,-1%[46.1 µM],/,/,/,-3.2%,-13%,-12%,-17%[46.1 µM]
CNC(=O)[C@H]1O[C@@H](n2cnc3c(NCc4cccc(I)c4)ncnc32)[C@H](O)[C@H]1O,?,-18%,/,/,-2.9%,/,?,/
Cc1nn(C)cc1C(=O)Nc1c(C)nn(Cc2ccccc2Cl)c1C,?,-2%,3%,6%,0.9%,-1%,-5%,0%
COCCCNC(=O)CCc1ccccc1,18%[46.1 µM],6%,-1%,15%,/,-7%,/,0%
CC(=O)Nc1ccc(S(=O)(=O)Nc2ccc3nc(C)sc3c2)cc1,?,/,-13%,-10%,/,-11%,/,?
COc1cccc(C(NC(=O)c2ccccc2F)NC(=O)c2ccccc2F)c1,-28%,12%,8%,19%,2.0%,25%,-22%,?
c1ccc(Cn2ncc3c(N4CCN(C(c5ccccc5)c5ccccc5)CC4)ncnc32)cc1,?,20%,-2%,-1%,/,?,/,?

# Next section.
SMILES,MARV entry inh,NS1 function inh,SARS PLP yeast,RE007 growth inh,Cruzain inh Det,2A StopGo,Cruzain inh noDet,LASV entry inh
Cc1cccc(C(=O)OCC(=O)Nc2nccs2)c1,8%,-4%,-2%,3%,-0.1%,37%[activator],?,1%
O=C(N(c1ccccn1)c1ccccn1)C12CC3CC(CC(Cl)(C3)C1)C2,7%[46.1 µM],-1%,?,-1%,/,-1%,/,2%
CCc1ccc(C(=O)C(C)OC(=O)c2nn(C)c(=O)c3ccccc23)cc1 (stereo not drawn),7%,/,-4%,-1%,/,-15%,/,1%[46.1 µM]
COc1ccc(N(C(=O)c2snc(C(N)=O)c2N)C(C(=O)NCc2ccc(F)cc2)c2ccc(C)o2)c(OC)c1 (stereo not drawn),13µM*,19%,1%,-4%,/,16%,/,8.9µM*
CSc1ccc(C(=O)C2CCCN(C(=O)Cn3cnnn3)C2)cc1 (stereo not drawn),-2%,3%,2%,-5%,/,-13%,/,-1%
COc1ccc(OCCCC(=O)OCC(=O)Nc2ccc(Cl)cn2)cc1,?,/,-5%,4%,/,-10%,/,?
Cc1nc2ccccc2c(=O)n1NC(=O)c1ccccc1Cl,1%,-9%,-4%,-13%,2.1%,-8%,-2%,-4%
CC(CC(F)(F)F)N1CCC(n2nccc2NC(=O)CCOc2ccccc2)CC1 (stereo not drawn),/,0%,24%,-3%,/,-10%,/,/
Cc1cc(-c2ccc(C)c(S(=O)(=O)NCCc3ccccc3)c2)on1,/,/,/,/,-3.1%,63%[activator],1%,-16%[46.1 µM]
Cc1c(NC(=O)C(C)Sc2n[nH]c(N)n2)c(=O)n(-c2ccccc2)n1C (stereo not drawn),7%,-1%,9%,12%,6.9%,-6%,6%,4%
Cc1cc(C)nc(NC2=NCC(=O)N2c2cccc(Cl)c2)n1,11%,2%,3%,-4%,0.0%,16%,3%,19%
COC(=O)c1cc(OC)c(OC)cc1NC(=O)Cn1nnc(-c2ccccc2Cl)n1,?,-5%,5%,-5%,-8.8%,-13%,?,-14%
Cc1nnc2c(N3CCN(CCO)CC3)nc3ccccc3n12,/,22%,1%,-5%,/,8%,/,/
COc1ccc(NC(=O)Nc2cc(-c3cn4cccnc4n3)ccc2OC)cc1,?,/,/,/,-1.6%,5%,2%,-1%[46.1 µM]
CC(C)NC(=O)c1ccc(CN2CCC(Cc3ccccc3)CC2)cc1,?,9%,3%,12%,/,-10%,/,21%[46.1 µM]
O=C(OCC#CCSc1nnc(-c2cccc3ccccc23)o1)c1cccs1,21%,3%,0%,-17%,-11%,17%,-14%,9%
CC(C)CN(C(=O)c1cccc(S(=O)(=O)N2CCCCC2)c1)C1CCS(=O)(=O)C1 (stereo not drawn),/,-12%,0%,10%,-0.5%,-9%&10%,6%,-29%[46.1 µM]
COCC1CCN(C(=O)c2ccc(OC3CCN(Cc4ccccn4)CC3)cc2)C1 (stereo not drawn),-3%,11%,-2%,-18%,/,-4%,/,?
NC(=O)c1cc(S(=O)(=O)NC2CCCCC2)co1,4%,3%,13%,9%,0.8%,5%,5%,-4%
Cc1sc2ncn(CC(=O)N(C)C3CCCCC3)c(=O)c2c1C,18%[46.1 µM],/,-3%,7%,/,13%,/,14%
C/C(=N\NC(=S)NCc1ccccc1)c1ccco1,5%[46.1 µM],-9%,0%,-11%,/,2%,/,-11%[46.1 µM]
O=C(c1cccs1)N1CCN(Cc2ccccc2)CC1,27%,2%,?,-1%,0.6%,-7%,17%,-5%
COc1cc(C(c2oc(CO)cc(=O)c2O)c2oc(CO)cc(=O)c2O)cc(OC)c1OC,9%,/,?,1%,/,-8%,/,0%
COC(=O)c1c2[n+](cc3cc(OC)c(OC)cc13)CCc1cc(OC)c(OC)cc1-2,-12%[46.1 µM],/,/,-25%,/,8%,/,-23%[46.1 µM]
O=C(CC1SCCNC1=O)Nc1cccc(Cl)c1 (stereo not drawn),?,4%,1%,9%,-8.4%,65%[activator],-1%,6%

# (more compounds)
SMILES,MARV entry inh,NS1 function inh,SARS PLP yeast,RE007 growth inh,Cruzain inh Det,2A StopGo,Cruzain inh noDet,LASV entry inh
Cc1c(O)cc2n(c1=O)-c1ccccc1C2(C)C,16%,-1%,-2%,-3%,0.5%,-27%,22%,?
CCCN1CCC(=NNC(=O)CSc2cc(C)c(Br)cc2C)CC1,1%,7%,0%,15%,-0.7%,-5%,4%,0%
Cc1cc(C)c(NC(=O)CCc2c(C)noc2C)c(C)c1,-20%,/,-4%,1%,/,-6%,/,9%
COc1ccc(N(C)C(=O)c2cc3c(Cl)nc4ccccc4c3s2)cc1,1%,-8%,-6%,9%,-4.0%,?,-26%,?
COc1ccc(N2CC(c3nc(-c4ccccc4C)no3)CC2=O)cc1Cl (stereo not drawn),/,/,/,/,-9.6%,-15%,?,-3%[46.1 µM]
Cc1ccc(-c2ccc(/C=N\NC(=O)c3cc4c(ccc5ccccc54)o3)o2)cc1[N+](=O)[O-],-8%,15%,-3%,7%,-3.9%,-15%,-13%,?
Cc1cc(C)cc(NC(=O)C2CCCN2S(=O)(=O)c2cccc3nsnc23)c1 (stereo not drawn),?,/,/,/,-1.0%,-19%,-2%,0%[46.1 µM]
CCOc1cc(C2C3=C(CCCC3=O)Nc3ccc4ncccc4c32)ccc1O (stereo not drawn),?,/,0%,-6%,/,-2%,/,-21%
O=C(NNC(=O)c1cc(Br)c(Br)s1)c1ccncc1,?,/,-8%,1%,/,-3%,/,13%
CC(C)=CCN1CCN(Cc2nc(-c3ccc(F)cc3)cs2)CC1CCO (stereo not drawn),/,-1%,0%,-11%,/,?,/,/
Cc1ccc2cc(C#N)c(N3CCN(C)CC3)nc2c1,-7%,0%,-1%,3%,-2.9%,-4%,-1%,7%
